Bioassay records: PubChem BioAssay, ICCB-Longwood Screening Facility, Harvard Medical School
AID504770: E. coli YBA685 growth inhibition, screen for V. cholerae RctB inhibitors; 130,000 tested, 0.27% active; z-score (test concentration not listed); AID 504770; E. coli YBA685 rctB-dependent plasmid, OD600 growth, 3 h; hits give low values;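 active means z-score under -2 on both plates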;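 further: wells of about 30 µL received 100 nL stock; score is relative to mean and SD of the test wells; the first replicate is given; strong numbers were not always called active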
Ba CapD inh: inhibitors of Bacillus anthracis CapD enzyme | purified CapD enzyme, fluorescence intensity read-out; hits give low values; some hits fall short of the stated cut | z-score (concentration not given with the values) | 140,000 tested, 0.23% active | AID 492967;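 active means z-score under -4 in either of two replicates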;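 further: stock transfer was 100 nL into about 40 µL; score is relative to mean and spread of the plate; one replicate is shown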
Numbers without * were called inactive; nt = no result given. Rows are unselected, and some 0.39% of all compounds hit somewhere here.

canonical_smiles | Ba CapD inh | AID504770
NC(=O)NC(=O)C(Sc1ncccn1)c1ccccc1 (stereo not given) | nt | -0.55
CC(C)c1cccc(C(C)C)c1NS(C)(=O)=O | 1.04 | 0
O=C(O)CCc1nc2ncccc2c(=O)n1Cc1ccc(F)cc1 | 0.355 | -0.4
COc1ccc(C(=O)N2CCc3cc(OC)c(OC)cc3C2)cc1OC | -0.025 | 1.4
Cc1cc2c(N)cccc2nn1 | -0.81 | nt
O=C(NCCCN1CCCC1=O)c1cc(=O)c2ccccc2o1 | 0.055 | -0.3
Cn1c(=O)n(C)c2cc(Nc3cc(N4CCCC4)ncn3)ccc21 | 0.545 | -0.5
CC(=O)Oc1cccc(C2C3=C(CC(c4ccccc4)CC3=O)Nc3ccccc3N2C(C)=O)c1 (stereo not given) | 5.62 | nt
C=CCn1c(SCC(=O)NC(C)C)nnc1-c1ccc2ncccc2c1 | 0.09 | -0.8
CCCc1cc(=O)n2[nH]c(C(F)(F)F)c(-c3ccccc3)c2n1 | 13.3 | -0.4

Next section
canonical_smiles | Ba CapD inh | AID504770
CCOC(=O)c1c[nH]c2onc(C)c2c1=O | 1.44 | 0.8
CCN(Cc1ccncc1)C(=O)c1ccc(Cl)c(Cl)c1 | 0.32 | -0.8
Cc1cc(OCC(=O)O)no1 | nt | -0.55
CN1C(=O)c2ccccc2N2C(=O)CCC12C(=O)OCN1C(=O)c2ccccc2C1=O (stereo not given) | nt | -0.15
O=C1c2ccccc2OCC1c1ccccc1 (stereo not given) | 7.67 | -0.55
CCOC(=O)c1[nH]c(=O)[nH]c1CSc1nnc(SCc2[nH]c(=O)[nH]c2C(=O)OCC)s1 | -0.92 | nt
BrCc1ccc2c(c1)c(-c1ccccc1)nc1nnnn12 | -0.19 | nt
N#Cc1ccc(OCc2ccc(Cl)nc2)cc1 | 0.365 | 0.2
COCc1cc(=O)[nH]c(/N=C(\N)Nc2ccc(F)cc2)n1 | -0.625 | 0.6
N#C/C(=C/c1cccs1)C(=O)O | nt | -0.4

Additional results follow:
canonical_smiles | Ba CapD inh | AID504770
O=C(O)CCn1c(-c2ccc(F)cc2)n[nH]c1=S | nt | -0.35
CCOC(=O)c1sc(NC(=O)c2cc3n(n2)C(C(F)(F)F)CC(c2cccs2)N3)c(C(=O)OCC)c1C (stereo not given) | 3.18 | nt
CN(C)C(=O)COC(=O)c1cc2ccccc2oc1=O | nt | -0.95
Cc1ccc(C)c(/C(O)=C2/C(=O)C(=O)N(CCc3ccccc3)C2c2ccc(O)cc2)c1 (stereo not given) | -0.91 | 0
Cc1oc(C(C)(C)C)cc1C(=O)NCc1ccc(C(=O)O)o1 | -0.24 | -0.6
COc1ccccc1-c1cc(C(F)(F)F)nc(NCc2ccco2)n1 | 60.5 | 0.8
O=C(Nc1ccccc1)c1nnsc1S(=O)c1ccc(Cl)cc1 (stereo not given) | -0.2 | nt
COC(=O)c1ccc(-c2csnn2)cc1 | -0.43 | -0.8
COCCNC(=O)c1ccc(N2CC3CC(C2)c2cccc(=O)n2C3)c(NC(=O)c2cc(OC)c(OC)c(OC)c2)c1 (stereo not given) | -0.13 | nt
COCCn1c(C)cc(C(=O)CSc2ncnc3sc(C)c(C)c23)c1C | -0.2 | -0.85

Other entries:
canonical_smiles | Ba CapD inh | AID504770
COc1ccc(/C=N/NC(=O)Cc2csc(-c3ccccc3)n2)c(OC)c1 | -0.005 | nt
CC(C(=O)NC1CC1)N1CCC(N2CCCCC2)CC1 (stereo not given) | nt | 0.35
O=C(OCC(=O)c1cccs1)c1ccc(N2C(=O)C3C4C=CC(C5CC45)C3C2=O)cc1 (stereo not given) | 0.5 | nt
Clc1cccc2nnc(-c3ccc(Br)cc3)n12 | -0.13 | nt
CC(=O)NC(c1ccccc1)c1cccnc1 (stereo not given) | nt | -0.4
CC(C)NC(=O)CCSc1nc(-c2ccco2)cc(C(F)(F)F)n1 | 0.405 | -0.15
CCCCNC(=O)Nc1cc(C(F)(F)F)c[nH]c1=O | nt | 0.15
c1ccc(Nc2ccccn2)cc1 | 1.25 | -0.85
CCN(CC)c1ccc(C(=O)c2ccccc2C)cc1 | -0.665 | 1.5
COc1ccc(C2=NOC(C(=O)N3CCCc4ccccc43)C2)cc1 (stereo not given) | 0.275 | 1.1

(more compounds)
canonical_smiles | Ba CapD inh | AID504770
O=C(O)/C=C/C(=O)Nc1cn(-c2ccccc2)nc1-c1ccccc1 | nt | -0.3
O=C(c1ccco1)N1CCN(C(=O)N2c3ccccc3Sc3ccccc32)CC1 | -1.04 | -0.1
O=[N+]([O-])c1cccc(S(=O)(=O)n2c(SCc3ccccc3F)nc3ccccc32)c1 | 0.08 | nt
NCC1CCCCC1CC(=O)O (stereo not given) | nt | -0.25
O=C(/C=C/C=C/c1ccco1)c1ccccc1 | -2.35 | -1.5
CC(=O)Oc1ccc(N2C(=O)CCC2=O)cc1 | -0.045 | -0.95
O=C(OCCN1C(=O)c2cccc3c(N4CCCCC4)ccc(c23)C1=O)c1ccc([N+](=O)[O-])cc1 | 0.09 | nt
COc1c[nH]n(C(C)(C)C)c(=O)c1=O | -0.105 | 1.25
CCOC(=O)C1=C(c2ccc(OC)cc2)NC(=O)NC1c1ccc(OC)cc1 (stereo not given) | 9.64 | 0.95
CCN(CC)C(=O)N(C)Cc1ccccc1 | -0.96 | 1.75

(next part)
canonical_smiles | Ba CapD inh | AID504770
O=C(NCc1cccnc1)c1ccoc1 | 0.595 | nt
Cc1ccc(S(=O)(=O)N(C)c2ccccc2C(=O)N2CCCC2)cc1 | 0.03 | 0.1
Cc1ccc(OCCCC(=O)Nc2ccc(S(=O)(=O)Nc3nc(C)cc(C)n3)cc2)cc1 | 0.085 | nt
COc1ccc2c(c1)CCC1C2=NN(C(C)=O)C1c1ccccc1 (stereo not given) | 0.185 | -0.15
COc1ccc(Cl)cc1-n1c(=S)sc2c(=O)[nH]c(SCc3cc(=O)n4cc(Cl)ccc4n3)nc21 | 0.3 | nt
O=C(CSc1nc2cc(Cl)ccc2o1)NC1CCCC1 | 0.26 | 0.45
COc1cccc(-n2cc(C(=O)NC(C)C)c3ccccc3c2=O)c1 | 4.56 | 0.95
CNC1c2cccc(OC)c2OCC1CO (stereo not given) | -0.16 | 0.2
CCOc1ccc(/C=C2\SC(=S)N(CCC(=O)NC3=NCCS3)C2=O)cc1 | -0.06 | nt
CCOC(=O)/C(C#N)=C/c1ccc2c(c1)c1ccccc1n2CC | nt | -0.4

(continued)
canonical_smiles | Ba CapD inh | AID504770
c1csc(-c2nnc(SCc3cscn3)n2C2CC2)c1 | nt | 0.75
Cc1ccc(C(=O)NCC2CCCCC2O)cc1 (stereo not given) | 0.24 | nt
Cc1c(NC(=O)c2cc3nc(-c4ccc5c(c4)OCO5)cc(C(F)(F)F)n3n2)c(=O)n(-c2ccccc2)n1C | -0.35 | nt
C=CCN1C(=O)NC(=O)/C(=C/c2cn(Cc3ccc(Cl)cc3)c3ccccc23)C1=O | 0.16 | nt
S=C(NC1CCCC1)NN1CCOCC1 | 0.42 | -0.65
CC(O/N=C/c1ccc2c(c1)OCO2)C(=O)N1CCc2ccccc21 (stereo not given) | nt | -0.2
COc1cc2[nH]c(=O)c(C(=O)NC3CCCC3)c(O)c2cc1OC | nt | -0.05
CCN1CCN(Cc2ccc(NC(=O)Cc3noc4ccccc34)cc2)CC1 | -0.585 | -0.4
Cc1ccc(-c2csc(-n3sc4ccccc4c3=O)n2)cc1 | 0.03 | 0
N#Cc1c(N)nc2sc(C(=O)c3ccc(Cl)cc3)c(N)c2c1-c1ccccc1 | -0.115 | nt

Later entries:
canonical_smiles | Ba CapD inh | AID504770
CCS(=O)(=O)n1nc(C(=O)N2CCOCC2)nc1N | -0.015 | 0.3
Cc1ccccc1N(C(=O)c1cccs1)c1nc2ccccc2s1 | nt | 0.15
COc1cccc(OC)c1CN1CCC(N(C)C(=O)c2cccc(C(F)(F)F)c2)CC1 | 0.11 | nt
O=C(OCc1cnc(Cl)s1)c1cccc(Cl)c1 | 0.125 | -0.05
O=C(Oc1ccccc1N1CCOCC1)c1cccs1 | -0.465 | -0.35
Clc1ccc(-c2cc(-c3ccccn3)on2)cc1 | 0.07 | 0.9
O=C(OCCNc1ncc(C(F)(F)F)cc1Cl)C1CCC1 | nt | -0.3
CCOC(=O)C1CCN(c2ccc(-c3cccs3)nn2)CC1 | 1.6 | -0.9
O=C(NCc1cccs1)C1C2C=CC3(CN(CCCN4CCOCC4)C(=O)C13)O2 (stereo not given) | -0.055 | -0.4
Nc1nc(Cl)cc(Oc2ccc(Cl)cc2)n1 | 0.64 | 1.05

More results:
canonical_smiles | Ba CapD inh | AID504770
Cc1nn(-c2ccccc2)c2sc(C(=O)N=Nc3[nH]c(N)c4ccccc34)cc12 | nt | -0.8
CCc1ccc(S(=O)(=O)/N=C2\C=CC(=O)c3ccccc32)cc1 | 0.01 | 1.65
COC(=O)c1cc(Br)c(-n2cccc2)cc1OC | -0.335 | -1.25
CCN(CC)S(=O)(=O)c1cccc(C(=O)N2CCCC2=C(C#N)C#N)c1 | nt | -0.65
O=C(O)C1CC1C(=O)N1CCN(C(c2ccc(F)cc2)c2ccc(F)cc2)CC1 (stereo not given) | -0.585 | nt
Cc1cccc(-n2ncc3c(Nc4ccc(-c5ccccc5)cc4)ncnc32)c1 | 8.32 | 2.05
O=C(NCc1ccccc1Cl)C1CCN(S(=O)(=O)N2CCCCC2)CC1 | -1.4 | -0.7
CC1=C(c2ccc(C)cc2)S(=O)(=O)NC1=NC1CCN(Cc2ccccc2)CC1 | 0.255 | 0.45
O=C(O)Cc1sc(-c2ccccc2)nc1-c1ccccc1 | 4.13 | 0.55
Cc1cc(C)c(C(=O)O)c(N)n1 | 1.05 | -0.65

The results go on.
canonical_smiles | Ba CapD inh | AID504770
COc1ccc(OC(=O)/C=C/c2cc3c(cc2Br)OCO3)cc1 | -0.78 | nt
Cn1c(=O)c2c([nH]c(=O)n2Cc2ccc(Cl)cc2Cl)n(C)c1=O | -0.395 | nt
O=C1CSc2cc(S(=O)(=O)NN3CCOCC3)ccc2N1 | -1.73 | 1.3
Clc1ccc(-c2nc3ccccc3nc2-c2ccccc2)cc1 | 0.01 | nt
O=C(Nc1nonc1-c1nc2ccccc2[nH]1)c1ccccc1Cl | 0.695 | 0.35
O=C1C2C(c3cccc(F)c3)OC3(C(=O)c4ccccc4C3=O)C2C(=O)N1c1ccccc1C(F)(F)F (stereo not given) | -0.945 | nt
Nc1cc(-c2ccc(OC(F)(F)F)cc2)nn1-c1ccc(Cl)cc1 | 0.355 | -1.35
COc1cc(C(=O)OCC(=O)NC2C3CC4CC(C3)CC2C4)cc2c1OCCO2 (stereo not given) | nt | -0.4
COc1ccc(C2Nc3ccccc3C(=O)N2c2ccc(F)cc2)cc1CSc1ccccn1 (stereo not given) | 57.2 | nt
O=C(CP(=O)(c1ccccc1)c1ccccc1)N1CCCCC1 | nt | -0.6

Next entries:
canonical_smiles | Ba CapD inh | AID504770
CCOC(CNc1ccc(C(F)(F)F)cn1)(OCC)c1ccncc1 | -0.115 | nt
O=S(=O)(c1ccc(F)c(F)c1F)N1CCN(C(=S)NC2CC3CCC2C3)CC1 (stereo not given) | nt | -0.2
COc1ccc(C2CC(c3ccc4ccccc4c3)=NN2C(=O)Cn2cnnc2C#N)cc1 (stereo not given) | nt | -1.45
O=c1[nH]nc(SCc2ccc(Cl)cc2)c(=O)[nH]1 | -0.335 | -0.05
NCCCOCc1ccco1 | nt | 2.45
COc1ccc(OC)c(CCNC(=O)Cn2ncc3c(=O)oc4ccc(C)cc4c32)c1 | -0.165 | -0.05
O=C1C(=Nc2ccccc2C(F)(F)F)c2ccccc2N1c1ccccc1 | 0.62 | nt
O=c1[nH]c(-c2ccccc2)nc2c1sc(=S)n2Cc1ccccc1 | 1.16 | 1.7
Cc1nnsc1-c1nnc(SCC(=O)c2ccc(F)cc2)n1C1CC1 | -1.22 | -0.55
O=C1NC(=O)C(CCc2ccncc2)(Cc2ccc(Br)s2)C(=O)N1 | 0.435 | -0.2

Of the compounds above, six have a cyano group:
canonical_smiles | Ba CapD inh | AID504770
N#Cc1ccc(OCc2ccc(Cl)nc2)cc1 | 0.365 | 0.2
N#C/C(=C/c1cccs1)C(=O)O | nt | -0.4
CCOC(=O)/C(C#N)=C/c1ccc2c(c1)c1ccccc1n2CC | nt | -0.4
N#Cc1c(N)nc2sc(C(=O)c3ccc(Cl)cc3)c(N)c2c1-c1ccccc1 | -0.115 | nt
CCN(CC)S(=O)(=O)c1cccc(C(=O)N2CCCC2=C(C#N)C#N)c1 | nt | -0.65
COc1ccc(C2CC(c3ccc4ccccc4c3)=NN2C(=O)Cn2cnnc2C#N)cc1 (stereo not given) | nt | -1.45

Following part
canonical_smiles | Ba CapD inh | AID504770
OC1CCN(c2cc(-c3ccccc3)nc3cc(-c4cccc(Cl)c4)nn23)CC1 | nt | -1.4
COC(=O)c1cc(S(=O)(=O)NC(C)(C)C)cn1C | -0.375 | -4.05
O=S1(=O)CC2SC(=S)N(c3cccc(O)c3)C2C1 (stereo not given) | -0.895 | 1.65
N#Cc1c(N)ccn(Cc2ccccc2)c1=O | 0.375 | -0.5
COc1cc(OC)nc(CSc2ccc(N)cc2)n1 | -0.335 | nt
CCNC(=O)NC(=O)C(c1ccccc1)n1nc(C(=O)O)c2ccccc2c1=O (stereo not given) | nt | -0.45
COc1ccc(N2CCN(C(=O)c3ccc(CS(=O)c4ccccc4)o3)CC2)cc1 (stereo not given) | -1.38 | 0.4
NNC(=O)c1ccc(Oc2cc(Cl)cc(Cl)c2)o1 | 10.8 | -0.25
Cc1nc2cc(C(=O)O)ccc2n1-c1ccc(F)c(F)c1 | 0.945 | 3.4
O=C(Nc1nccs1)C1CCN(C(=O)c2ccc(Cl)cc2)CC1 | nt | -0.3
CS(=O)(=O)NCc1cccc2ccccc12 | -0.1 | -0.05
